GIRK2 activ: activators of human GIRK2 potassium channels; HEK293-GIRK2 thallium flux, Thallos fluorescence; calls only for hits at 25 µM; actives 0.05% (n = 63,000); G protein-activated inward rectifier potassium channel 2 (Homo sapiens), P48051;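 active = among the strongest 0.2% of first-round signals and kept after retests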;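 note: first round at about 10 µM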
Target sequence (P48051 whole entry, looked up): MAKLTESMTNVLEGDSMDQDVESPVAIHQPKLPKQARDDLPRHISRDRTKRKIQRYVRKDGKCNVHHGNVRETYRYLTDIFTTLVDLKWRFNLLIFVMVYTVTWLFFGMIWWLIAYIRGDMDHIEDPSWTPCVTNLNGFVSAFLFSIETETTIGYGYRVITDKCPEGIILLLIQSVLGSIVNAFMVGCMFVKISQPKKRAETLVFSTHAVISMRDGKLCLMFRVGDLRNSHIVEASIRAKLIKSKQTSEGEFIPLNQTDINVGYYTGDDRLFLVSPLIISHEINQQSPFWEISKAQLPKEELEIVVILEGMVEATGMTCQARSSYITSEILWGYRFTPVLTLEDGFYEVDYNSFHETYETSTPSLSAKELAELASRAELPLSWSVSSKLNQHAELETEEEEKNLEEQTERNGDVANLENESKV
Calls only. These rows are one share of the data (hit frequency here may not be typical).

COc1cccc(NC(=O)c2ccc(N3C(=O)C4CC=CCC4C3=O)cc2)c1 (centres undefined) was read as GIRK2 activ inactive.
Screening O=C(NCc1ccc(Cl)cc1)N1CCN(Cc2nnnn2-c2ccc(F)cc2)CC1 returned GIRK2 activ inactive.
Screening Cc1nc2c(c(=O)n1CC(=O)Nc1ccc(Br)cc1F)CCCC2 returned GIRK2 activ inactive.
`CCCc1cnc2c(c1SCCOCC)c(=O)n(C)c(=O)n2C` gave GIRK2 activ inactive.
For C=C(C)Cn1c(=O)c2c(nc3n2CCN3c2cc(C)ccc2C)n(C)c1=O the results were GIRK2 activ inactive.
`Cn1c(=O)n(CCN2CCCCC2)c(=O)c2c1nc1n2CCCN1CCc1ccccc1` gave GIRK2 activ inactive.
`CCOC(=O)c1c(NCc2ccccc2C(F)(F)F)c2cccc(C)c2[nH]c1=O` gave GIRK2 activ inactive.
`CCc1nnc(C2CCN(C(=O)NCCc3ccccc3)CC2)s1` gave GIRK2 activ inactive.
`O=C(Cc1n[nH]c(COc2ccc(Cl)cc2)n1)NCc1ccccc1` gave GIRK2 activ inactive.
`COc1cn(C)c(C(=O)NCc2ccc(Cl)cc2)cc1=O` gave GIRK2 activ inactive.
For O=C(NC(c1ccccc1)c1ccccc1)N1CCCC1 the results were GIRK2 activ inactive.
O=C(COc1ccc2c(c1)OCO2)NCCn1nc(-n2ccnc2)ccc1=O was read as GIRK2 activ inactive.
C=C(C(=O)OC1CC2(C)C(O)CCC(C=O)C2C(O)C1C(=C)C(=O)OC)C(O)CO (centres undefined) was read as GIRK2 activ inactive.
For Cc1ccc(N2CC(C(=O)NCC3(O)CCOc4ccccc43)CC2=O)cc1C (centres undefined) the results were GIRK2 activ inactive.
`CC(=O)N(CC1CCCO1)c1nc2ccc(F)cc2s1` (centres undefined) gave GIRK2 activ inactive.
COc1ccccc1OCC#CCNC(=O)c1ccoc1 was read as GIRK2 activ inactive.
CC(=O)N1CC(C(=O)Nc2nc(-c3cccnc3)cs2)C1 was read as GIRK2 activ inactive.
COc1ccc(NC(=O)CCc2csc(NC(=O)c3ccc(=O)[nH]c3)n2)cc1OC was read as GIRK2 activ inactive.
Cc1ccc(NS(=O)(=O)c2n[nH]c(C)c2C(=O)NCc2ccccc2F)cc1 was read as GIRK2 activ inactive.
Screening Cc1nc(-c2cccs2)sc1CNC(=O)NCc1cccc2ccccc12 returned GIRK2 activ inactive.
Screening COC(=O)Nc1nc(CC(=O)NCCOc2ccc(F)cc2)cs1 returned GIRK2 activ inactive.
`C=C(C)CN1CCN(c2cc(C)nc3nc(C(F)(F)F)nn23)CC1` gave GIRK2 activ inactive.
Cc1noc(Cn2nc3cc(-c4nc(C)no4)ccn3c2=O)n1 was read as GIRK2 activ inactive.
`O=C(/C=C/c1cccs1)NCC1(O)CCOc2ccccc21` (centres undefined) gave GIRK2 activ inactive.
For Cc1cc(C(O)CCNC(=O)C(=O)Nc2ccc(F)c(Cl)c2)c(C)o1 (centres undefined) the results were GIRK2 activ inactive.
COc1ccc(S(=O)(=O)N2CCCc3cc(NS(C)(=O)=O)ccc32)cc1 was read as GIRK2 activ inactive.
`CCCc1ccc(C(=O)NCCC(O)C2CC2)cc1` (centres undefined) gave GIRK2 activ inactive.
COc1ccc(Cl)cc1C(=O)Nc1cnc(N2CCOCC2)nc1 was read as GIRK2 activ inactive.
COc1ccc(C2c3c(oc4ccc(C)cc4c3=O)C(=O)N2c2nncs2)cc1OC (centres undefined) was read as GIRK2 activ inactive.
For COc1ccccc1C(=O)N1CCCC(c2nnc(-c3ccc4c(c3)OCO4)o2)C1 (centres undefined) the results were GIRK2 activ inactive.
For Cc1ccc(Cl)c(-n2nnc(C(=O)NC3CCCC3)c2C)c1 the results were GIRK2 activ inactive.
`Cc1ccc(C)c(S(=O)(=O)Nc2cccc(-c3csc4nc(C)cc(=O)n34)c2)c1` gave GIRK2 activ inactive.
Screening COc1cccc2cc(C(=O)C3=C(O)C(=O)N(CCCN(C)C)C3c3ccccc3)oc12 (centres undefined) returned GIRK2 activ inactive.
For Cc1cc(CCNC(=O)c2cc(-c3ccccc3)n[nH]2)on1 the results were GIRK2 activ inactive.
`O=C(CCS(=O)(=O)c1ccccc1)NCc1ccsc1` gave GIRK2 activ inactive.
`O=C(OC1CN(c2nc3c(Cl)cccc3s2)C1)c1ccc(S(=O)(=O)N2CCOCC2)cc1` gave GIRK2 activ inactive.
Screening COC(=O)c1sccc1NC(=O)Cn1c(C)cc(C)c(C#N)c1=O returned GIRK2 activ inactive.
For CC(=O)Nc1ccc(NC(=O)c2cc(-c3ccc(Cl)cc3Cl)oc2C)cc1 the results were GIRK2 activ inactive.
N#CC1CCN(S(=O)(=O)c2ccccc2)CC1 was read as GIRK2 activ inactive.
For CCOC(=O)c1c(C)c(C(=O)N2CCN(c3ccc(F)cc3)CC2)c(C)n1C the results were GIRK2 activ inactive.
Screening COC(=O)c1[nH]c(C)c(C(O)=C2C(=O)C(=O)N(CCCN(C)C)C2c2ccco2)c1C (centres undefined) returned GIRK2 activ inactive.
Screening Cc1oc2cc(OCCN3CCN(CCO)CC3)ccc2c(=O)c1-c1ccccc1 returned GIRK2 activ inactive.
`CCc1ccc(NC(=O)C(=O)NCC2COC3(CCCC3)O2)cc1` (centres undefined) gave GIRK2 activ inactive.
Cc1c(C(=O)Nc2cccc(C(C)O)c2)nnn1-c1cccc(Cl)c1 (centres undefined) was read as GIRK2 activ inactive.
For NC(=O)C1CCN(c2oc(-c3ccccc3)nc2S(=O)(=O)c2ccc(Br)cc2)CC1 the results were GIRK2 activ inactive.
O=c1ccc(-c2ccccc2)nn1Cc1ccc([N+](=O)[O-])cc1 was read as GIRK2 activ inactive.
For N#Cc1nc(/C=C/c2cccs2)oc1N1CCN(C(=O)c2ccccc2Cl)CC1 the results were GIRK2 activ inactive.
`COc1ccccc1C1c2c(oc3ccccc3c2=O)C(=O)N1CCN(C)C` (centres undefined) gave GIRK2 activ inactive.
`Cc1c(C(=O)Nc2nc3c(s2)CN(S(=O)(=O)C2CC2)CC3)cnn1-c1ccccc1` gave GIRK2 activ inactive.
Screening O=C(NCC1CCS(=O)(=O)C1)c1ccco1 (centres undefined) returned GIRK2 activ inactive.
For O=C(c1ccsc1)N1CCC(c2cccs2)CC1 the results were GIRK2 activ inactive.
O=C(Nc1ccc2c(c1)CN(C(=O)C1CC1)CC2)c1cc(C2CC2)on1 was read as GIRK2 activ inactive.
Screening COC(=O)c1cc(Cl)ccc1NC(=O)Cn1c(C)cc(C)c(C#N)c1=O returned GIRK2 activ inactive.
For Cc1nc2sccn2c1-c1nnc(SCc2ccc(C(F)(F)F)cc2)n1C the results were GIRK2 activ inactive.
For O=C(NC(c1ccccc1)c1ccccc1)N1CCC2(CC1)OCCCO2 the results were GIRK2 activ inactive.
`O=C(Oc1ccc2c(c1)O/C(=C\c1cc(Cl)cc3c1OCOC3)C2=O)c1ccco1` gave GIRK2 activ inactive.
For CCOc1ccc(/C=C/C(=O)Nc2cccc(OC)c2)cc1 the results were GIRK2 activ inactive.
`CC1CCN(S(=O)(=O)c2cccn(CC(=O)Nc3ccc(F)cc3Cl)c2=O)CC1` gave GIRK2 activ inactive.
Screening O=C(CSc1nc2ccccc2s1)Nc1cccc2nsnc12 returned GIRK2 activ inactive.
For O=C(Nc1nc2c(s1)CN(C(=O)c1ccc3c(c1)OCO3)CC2)c1ccco1 the results were GIRK2 activ inactive.

3 entries picked at random from the list so far, as already listed:
For COc1ccccc1C(=O)N1CCCC(c2nnc(-c3ccc4c(c3)OCO4)o2)C1 (centres undefined) the results were GIRK2 activ inactive.
COc1ccc(Cl)cc1C(=O)Nc1cnc(N2CCOCC2)nc1 was read as GIRK2 activ inactive.
CC(=O)N1CC(C(=O)Nc2nc(-c3cccnc3)cs2)C1 was read as GIRK2 activ inactive.

Next structures.
Screening Cc1cn2c3c(=O)n(CC(=O)OCc4ccccc4)c(=O)n(C)c3nc2n1CCN1CCOCC1 returned GIRK2 activ inactive.
For COc1ccc(C2=NN3C(C2)c2cccc(OC)c2OC32C(=O)Nc3ccc(F)cc32)cc1 (centres undefined) the results were GIRK2 activ inactive.
O=C(Nc1nc2c(s1)CN(C(=O)c1cc(=O)c3ccccc3o1)CC2)c1ccco1 was read as GIRK2 activ inactive.
Screening COc1ccc(F)cc1S(=O)(=O)N1CCN(c2c(C)nn(C3CCS(=O)(=O)C3)c2C)CC1 (centres undefined) returned GIRK2 activ inactive.
COc1ccc(S(=O)(=O)N2CCCCCC2)cc1C was read as GIRK2 activ inactive.
CC(=O)Nc1ccc(C(=O)NCCNS(C)(=O)=O)cc1 was read as GIRK2 activ inactive.
`COCc1nc2ccccc2n1CCCOc1ccccc1C` gave GIRK2 activ inactive.
`O=C(NCCNc1ccc(-n2cccc2)nn1)c1ccccc1C(F)(F)F` gave GIRK2 activ inactive.
Screening COc1ccc(-n2c(C)cn3c4c(=O)n(CCC(C)C)c(=O)n(C)c4nc23)c(OC)c1 returned GIRK2 activ inactive.
Screening NC(=O)c1ccc(NC(=O)Cn2nc(-c3ccco3)c3sc(N4CCCC4)nc3c2=O)cc1 returned GIRK2 activ inactive.
Screening COc1ccc(NC(=O)CSc2nnc(NC(=O)c3cn(C)nc3OC)s2)cc1OC returned GIRK2 activ inactive.
`Nc1c(C(=O)Nc2ccccc2C(F)(F)F)nnn1-c1cccc(Cl)c1` gave GIRK2 activ inactive.
For O=C(c1cn(-c2cc(N3CCCCC3)ncn2)cn1)N1CCCCC1 the results were GIRK2 activ inactive.
For CCOCCn1c(N2CCN(Cc3cccc(C)c3)CC2)nc2c1c(=O)[nH]c(=O)n2C the results were GIRK2 activ inactive.
Screening Cn1c(CN2CCN(CC(=O)N3CCc4ccccc43)CC2)nc2ccccc21 returned GIRK2 activ inactive.
For COc1ccc(C(=O)CN2C(=O)c3ccccc3OC(c3ccccc3)C2=O)cc1 (centres undefined) the results were GIRK2 activ inactive.
For CC1Nc2ncnn2C(c2ccccc2F)C1C(=O)Nc1ccc(Cl)cc1 (centres undefined) the results were GIRK2 activ inactive.
CN(C(=O)Cn1nc(-c2ccccc2)c2sc(N3CCCCC3)nc2c1=O)c1ccccc1 was read as GIRK2 activ inactive.
COc1ccc(C(=O)CN2CC(c3nc(Cc4ccccc4)no3)C2)cc1 was read as GIRK2 activ inactive.
Screening Cc1nc(Nc2ccc(NS(=O)(=O)c3ccc(F)cc3)cc2)cc(-n2cccn2)n1 returned GIRK2 activ inactive.
For Cc1nc(-c2cccs2)sc1CNC(=O)NCCCc1ccccc1 the results were GIRK2 activ inactive.
`O=C(Cn1c(=O)nc(-c2ccccc2)c2ccccc21)Nc1cccc(Br)c1` gave GIRK2 activ inactive.
C#CCn1c(=NC(=O)CSC(C)=O)sc2ccccc21 was read as GIRK2 activ inactive.
`CCOCCn1c(=O)c2c(nc3n(-c4cc(C)ccc4C)c(-c4ccccc4)cn23)n(C)c1=O` gave GIRK2 activ inactive.
COc1ccc(-c2ccnc(SCC(=O)N3CCN(c4ccccn4)CC3)n2)cc1 was read as GIRK2 activ inactive.
Screening O=C(Cn1nc2c(=O)n(-c3ccc(Br)cc3)ccn2c1=O)Nc1cc(F)ccc1F returned GIRK2 activ inactive.
For COc1ccccc1N1CCN(CCNS(=O)(=O)c2cccnc2)CC1 the results were GIRK2 activ inactive.
`Cc1c(Cl)cccc1S(=O)(=O)NCC1CCN(S(=O)(=O)c2cccnc2)CC1` gave GIRK2 activ inactive.
Cn1c(=O)n(CCN2CCOCC2)c(=O)c2c1nc1n2CCCN1C1CCCCC1 was read as GIRK2 activ inactive.
For CSc1ccccc1NC(=O)c1ccc(S(=O)(=O)N2CCOCC2)o1 the results were GIRK2 activ inactive.
For COc1c2occc2cc2ccc(=O)oc12 the results were GIRK2 activ inactive.
For CC1CCC2C(C)(C)C(O)C(O)CC2(C)C12Cc1c(O)cc(CO)c(C=O)c1O2 (centres undefined) the results were GIRK2 activ inactive.
O=C(CSc1ccc(F)cc1)N1CCN(Cc2nc3ccccc3[nH]2)CC1 was read as GIRK2 activ inactive.
For COc1cccc(NC(=O)NCC2CCN(C(=O)c3ccoc3)CC2)c1OC the results were GIRK2 activ inactive.
For Cc1ccccc1-n1cc(C(=O)N2CCC(NC(=O)C3CCCCC3)CC2)nn1 the results were GIRK2 activ inactive.
CCCCC(=O)Nc1oc2c(C)cccc2c(=O)c1-c1ccc2c(c1)OCO2 was read as GIRK2 activ inactive.
`CSc1ccccc1NC(=O)C(=O)NCC(c1cn(C)c2ccccc12)N(C)C` (centres undefined) gave GIRK2 activ inactive.
For COc1ccc(NC(=O)COc2ccc(F)cc2)cc1N1CCCC1=O the results were GIRK2 activ inactive.
Screening COc1ccc(NC(=O)Cn2nc3c(N4CCCC(C)C4)nccn3c2=O)cc1OC (centres undefined) returned GIRK2 activ inactive.

Structural class: those above with a furan ring, fused or not
COc1ccccc1OCC#CCNC(=O)c1ccoc1 was read as GIRK2 activ inactive.
For Cc1cc(C(O)CCNC(=O)C(=O)Nc2ccc(F)c(Cl)c2)c(C)o1 (centres undefined) the results were GIRK2 activ inactive.
Screening COc1cccc2cc(C(=O)C3=C(O)C(=O)N(CCCN(C)C)C3c3ccccc3)oc12 (centres undefined) returned GIRK2 activ inactive.
For CC(=O)Nc1ccc(NC(=O)c2cc(-c3ccc(Cl)cc3Cl)oc2C)cc1 the results were GIRK2 activ inactive.
Screening COC(=O)c1[nH]c(C)c(C(O)=C2C(=O)C(=O)N(CCCN(C)C)C2c2ccco2)c1C (centres undefined) returned GIRK2 activ inactive.
Screening O=C(NCC1CCS(=O)(=O)C1)c1ccco1 (centres undefined) returned GIRK2 activ inactive.
`O=C(Oc1ccc2c(c1)O/C(=C\c1cc(Cl)cc3c1OCOC3)C2=O)c1ccco1` gave GIRK2 activ inactive.
For O=C(Nc1nc2c(s1)CN(C(=O)c1ccc3c(c1)OCO3)CC2)c1ccco1 the results were GIRK2 activ inactive.
O=C(Nc1nc2c(s1)CN(C(=O)c1cc(=O)c3ccccc3o1)CC2)c1ccco1 was read as GIRK2 activ inactive.
Screening NC(=O)c1ccc(NC(=O)Cn2nc(-c3ccco3)c3sc(N4CCCC4)nc3c2=O)cc1 returned GIRK2 activ inactive.
For CSc1ccccc1NC(=O)c1ccc(S(=O)(=O)N2CCOCC2)o1 the results were GIRK2 activ inactive.
For COc1c2occc2cc2ccc(=O)oc12 the results were GIRK2 activ inactive.
For COc1cccc(NC(=O)NCC2CCN(C(=O)c3ccoc3)CC2)c1OC the results were GIRK2 activ inactive.
